# Bioassay records: PubChem, National Center for Advancing Translational Sciences (NCATS)
# Vaccinia mCherry: inhibitors of vaccinia virus infection (mCherry reporter signal). Vaccinia virus mCherry reporter infection, fluorescence; about a quarter of the inactives have no number. Potency, µM (series often up to 36.5 µM), inactives show at the top dose activity change, negative = inhibition, most hits filed as inhibitors. 310,000 compounds, 0.63% hits. AID 720579; active = well fitted inhibition curve with a large enough effect; inconclusive = small, poorly fitted or top-dose-only effect; inactive = no such curve, though single readings can be large or run the other way; tested in A549 cells; note: nearly all actives have a fitted effect of over 35% in size; inactives centre near -10
# VACV Venus inh: inhibitors of vaccinia virus (Venus reporter); Potency, µM (top dose mostly 36.5 µM), for the others: top-dose activity change, negative = inhibition, usual class: inhibitors; AID 720580; Vaccinia virus Venus reporter expression, fluorescence; 330,000 compounds, 0.46% hits; active means well fitted inhibition curve with a large enough effect; inconclusive means small, poorly fitted or top-dose-only effect; inactive means no such curve, though single readings can be large or run the other way; tested in A549 cells; note: nearly all actives have a fitted effect of over 30% in size; inactives centre near -10
# An asterisk follows results filed as active; i = inactive; ? = inconclusive; nt = no result given; & = joins results of further samples; [ ] = dose if it differs, or a comment. % is set by controls: 0 for no effect and ±100 for the full control effect; potency is the fitted concentration of half-maximal effect.
structure	Vaccinia mCherry	VACV Venus inh
C[n+]1cnn2c1SCC1(COC1)C2	-8%	-16%
CCOC(=O)c1ccccc1NC(=O)Nc1cc2c(cc1N1CCCC1)n(C)c(=O)n2C	-18%	-28%
OC(CNCc1ccc(-c2ccccc2)cc1)c1ccccc1 (stereo unspecified)	-5%	-26%
Cc1ccccc1C(=O)NCC(=O)NC1CC1	-11%	-1%
COc1cccc(OC)c1C(=O)Nc1ccc(C(=O)c2ccncc2)cc1	-20%	-6%
CC(=O)Nc1cc(-c2ccccc2)cn2c(-c3cccc(C(C)=O)c3)cnc12	i	-4%
Cc1ccc(-n2ncc(C(=O)N3CCc4ccccc4C3)c2C2CCN(C(=O)OC(C)(C)C)CC2)cc1C	-9%	-15%
Cc1c(C(=O)N(Cc2ccccc2)Cc2cccs2)cnn1-c1ccc(Cl)cc1	-27%	-7%
CCCCn1c(N)c(N(CCC(C)C)C(=O)COC(=O)Cc2ccc(Cl)cc2)c(=O)[nH]c1=O	-9%	-11%
COc1ccc(N2CCN(S(=O)(=O)c3ccc4c(c3)CC(C)N4C(=O)C3CC3)CC2)cc1 (stereo unspecified)	-7%	-1%

# Next section:
structure	Vaccinia mCherry	VACV Venus inh
O=C(COC(=O)Cc1ccccc1)Nc1cc(S(=O)(=O)N2CCCCC2)ccc1Cl	-4%	-12%
Cc1ccc(N(Cc2cc3ccc(C)cc3[nH]c2=O)C(=O)c2ccco2)cc1	12%[7.34 µM]	23%[7.34 µM]
COc1ccc(CN2C(=O)c3ccccc3C(/C=N\OCc3ccc(C)cc3)C2=O)cc1 (stereo unspecified)	nt	-18%
O=C(CSc1nc2c([nH]c3ccccc32)c(=O)n1-c1ccc(F)cc1)NC1CCCCC1	-17%[7.34 µM]	-17%[7.34 µM]
Cc1ccc(NC(=O)CSc2nccn2C2CCCC2)cc1Cl	-18%	-9%
c1cc2c(cc1-c1[nH]ncc1CN1C[C@H]3CC[C@H]1C3)OCO2	-1%	-3%
CCOC(=O)CNC(=O)CSc1nc2nc(C)c(Br)cc2[nH]1	nt	?
COc1ccccc1N1CCN(c2ncnc3n[nH]c(Br)c23)CC1	-22%	-10%
Cn1cccc1CNC(=S)Nc1ccccc1F	-4%	-14%
CC(C)NC(=O)CSc1nc2ccccc2n1CC(=O)N(C(C)C)C(C)C	-15%	-5%

# Remaining list, next part
structure	Vaccinia mCherry	VACV Venus inh
O=C(NCC(=O)N1CC=C(c2ccccc2)CC1)c1ccco1	-12%	-4%
COc1ccc(NC(=O)N2CCN(c3ccc([N+](=O)[O-])cc3)CC2)cc1	i	-6%
Cc1nnc(SCC(=O)Nc2cccc(S(=O)(=O)N3CCCC3)c2)n1C1CC1	-8%	-8%
Cc1cccc(S(=O)(=O)Nc2nc3ccccc3nc2NCc2ccc3c(c2)OCO3)c1	-14%	-11%
CC1CC(C)CN(C(=S)Nc2ccc(SC(F)F)cc2)C1 (stereo unspecified)	-4%	-12%
CC(=O)c1c(C)[nH]c(C(=O)NCc2ccccn2)c1C	-17%	-4%
Cc1cccc(CNC(=O)CCCN2C(=O)CCn3nc(-c4cccn4C)cc32)c1	-6%	-1%
Clc1cccc[n+]1CCCCCC[n+]1ccccc1Cl	-9%	-5%
Cc1ccc(CNC(=O)c2coc(=O)c3ccccc23)o1	-10%	5%
CCN(CC)C(=O)C1CCN(S(=O)(=O)c2ccc(C3CNC(=O)C3)cc2)CC1 (stereo unspecified)	-4%	-6%

# More compounds:
structure	Vaccinia mCherry	VACV Venus inh
COc1ccc2cc(CN(CCCN3CCOCC3)Cc3nnnn3C3CCCC3)c(=O)[nH]c2c1	-4%	-25%
Cc1[nH]c2ccccc2c1CN1CCN(c2ccccn2)CC1	-22%	-14%
Cc1c(N=C2N=C(NC(=O)c3ccc(F)cc3)c3ccccc32)c(=O)n(-c2ccccc2)n1C	i	-8%
COC(=O)c1ccccc1S(=O)(=O)N1CCCC(c2nc3c(nnn3Cc3ccc(C)cc3)c(=O)[nH]2)C1 (stereo unspecified)	-23%	-8%
Cc1nn(C)c2c1c(-c1ccccc1)cc(=O)n2Cc1ccccc1Cl	-5%	-1%
CCC1Nc2ncnc(N3CCOCC3)c2N(Cc2ccc(Cl)cc2)C1=O (stereo unspecified)	i	-6%
Cc1nc2cc(C(F)(F)F)ccc2n1C1CCN(Cc2nnnn2CCc2ccccc2)CC1	nt	?
O=S(=O)(c1ccc(Cl)cc1)N1CCn2c1nc1ccccc12	-18%	-11%
CCCCCCN1Cc2ccccc2C1	nt	1%
O=C(NCc1n[nH]c(=S)n1-c1ccc(Cl)c(Cl)c1)c1ccc(S(=O)(=O)N2CCCCC2)cc1	-4%	-5%

# (further entries)
structure	Vaccinia mCherry	VACV Venus inh
COc1cc(C(C)=O)ccc1Oc1ccc(S(=O)(=O)N2CCOCC2)cn1	-24%	-14%
CCc1cc2c(=O)c(-n3cnc4ccccc43)coc2cc1O	nt	-4%
COC(=O)c1ncccc1SC	i	-8%
Cc1nc(N2CCN(S(=O)(=O)c3ccc(Br)cc3)CC2)c2c(C)c(C)sc2n1	-1%	-24%
CCCN(CCC)C(=O)Cn1c(=O)n(CCCC(=O)NCc2ccco2)c(=O)c2sccc21	i	1%
Cn1cccc1/C=N/NC(=O)CSc1nc2ccccc2n1C	-6%	-14%
Cc1ccc(CN(C(=O)COc2cc(C)c(Cl)c(C)c2)c2ccccn2)o1	-5%	5%
CN(C)c1cccc(C(=O)N/N=C/c2ccccc2F)c1	i	-5%
COc1ccc(CCNC(=O)CCn2c(=O)c3ccccc3n(Cc3ccccc3F)c2=O)cc1OC	12%	1%
COc1ccc(NC(=O)CSc2nnnn2C)c([N+](=O)[O-])c1	-6%	2%

# 4 of these compounds, set out differently:
# Below each compound: Vaccinia mCherry | VACV Venus inh
CCc1cc2c(=O)c(-n3cnc4ccccc43)coc2cc1O
  nt | -4%
COC(=O)c1ncccc1SC
  i | -8%
Cc1nc(N2CCN(S(=O)(=O)c3ccc(Br)cc3)CC2)c2c(C)c(C)sc2n1
  -1% | -24%
CCCN(CCC)C(=O)Cn1c(=O)n(CCCC(=O)NCc2ccco2)c(=O)c2sccc21
  i | 1%

# Next part
structure	Vaccinia mCherry	VACV Venus inh
COc1cccc(NS(=O)(=O)c2c(C)cc(C)cc2C)c1	-15%	-22%
COc1ccc2c(c1)CCc1c-2nc2ccccc2c1N1CCOCC1	-13%	-16%
Cc1ccc(-n2c(Cc3ccccc3)nnc2SCc2nc(-c3cccs3)no2)cc1C	-1%	-1%
O=c1oc(C2(O)CCCCC2)cc2ccc(/C=C/c3ccc(F)cc3)cc12	-7%	-25%
COC(=O)CSc1nnc2c3c4c(sc3nc(-n3nc(C)cc3C)n12)COC(C)(C)C4	nt	-7%
O=C(Nc1ccc(Oc2ccccc2)nc1)C1CCCCN1Cc1cccc(O)c1 (stereo unspecified)	-17%	-29%
CCCC(=O)NC(=S)Nc1nc(-c2ccc(OC)cc2)cs1	?	?
Cc1cc(C=C2C(=O)NC(=S)NC2=O)c(C)n1-c1ccc2c(c1)OCO2	-17%	-3%
Cc1ccccc1NC(=S)NNC(=O)c1cccc(Br)c1	-23%	-10%
CCOCCCNC(=O)C(c1ccc(Cl)cc1)N1CCN(C(=O)c2ccco2)CC1 (stereo unspecified)	-19%	-12%

# Additional compounds follow.
structure	Vaccinia mCherry	VACV Venus inh
CN(C(=O)CSc1nnnn1-c1ccccc1)C1CCCCC1	-8%[1.46 µM]	-11%
COc1cc2ccc(=O)oc2c2ccoc12	-9%	0%&9%
Cc1c(NC(=O)CN2CC(C)OC(C)C2)c(=O)n(-c2ccccc2)n1C (stereo unspecified)	-21%&-10%	10%&0%
CCCC(=O)Nc1ccc(NC(=O)c2ccccc2)nc1	-3%	-10%
COc1cccc(C(=O)N(Cc2cccc(F)c2)C2CCS(=O)(=O)C2)c1 (stereo unspecified)	-11%	-13%
CCOC(=O)NC1(C(F)(F)F)C(=O)NC(C)=C1C#N (stereo unspecified)	nt	9%
Cc1cc(C)n(CC(=O)NNC(=O)COc2ccc(Br)cc2F)n1	-10%	-5%
CCCN1CCN(C(=O)C2CCN(S(=O)(=O)c3ccc4c(c3)oc(=O)n4C)CC2)CC1	-15%	-16%
CC(NS(=O)(=O)c1cn(C)c(=O)n(C)c1=O)c1ccccc1 (stereo unspecified)	-10%	-6%
Cc1ccc(S(=O)(=O)NCC2CCC(C(=O)NCCCN3CCC(C)CC3)CC2)cc1 (stereo unspecified)	i	-15%

# Remaining list, next part
structure	Vaccinia mCherry	VACV Venus inh
CC(C)=CC1C(C(=O)NCCOc2ccccc2)C1(C)C (stereo unspecified)	-18%	-8%
O=C1NCCN(CC2CCN(CCc3ccccc3)CC2)C1=O	-1%	-20%
Cc1ccc(CNC(=O)/C(C#N)=C/c2ccc(C)s2)cc1	i	-15%
O=C(Nc1ccccc1)C1CC(=O)n2c(nc3ccccc32)N1 (stereo unspecified)	-22%	-6%
CCN(CC)c1cc2c(cc1F)c(=O)c(S(=O)(=O)c1cc(C)ccc1C)cn2Cc1ccccc1	-10%	-18%
CCN(CC)S(=O)(=O)c1ccc2c(c1)c(=O)c(C(=O)NCc1ccccc1OC)cn2C	?	?
CC(=O)NCCc1nc2ccccc2n1Cc1ccc(Cl)cc1	-1%	-9%
C[C@H]1CN([C@@H](C)CO)C(=O)CCCn2nncc2CO[C@H]1CN(C)S(=O)(=O)c1ccc(Cl)cc1	-13%	-11%
Cc1ccc(-c2ccc(CN3C(C)C(=O)N(Cc4cn(CCC5OCCO5)nn4)CCS3(=O)=O)cc2)cc1 (stereo unspecified)	-20%	-29%
CC(=O)N1CCc2c(sc3nc(SCC(C)C)n(-c4ccc(F)c(Cl)c4)c(=O)c23)C1	-17%	-14%

# Continuation.
structure	Vaccinia mCherry	VACV Venus inh
CN1C(=O)C(=Cc2ccc(N3CCOCC3)o2)C(=O)N(C)C1=O	i	-4%
CCc1ccccc1NC(=O)NC1CC2CCC(C1)N2Cc1cccs1 (stereo unspecified)	i	-12%
O=C(CN(C(=O)c1csnn1)c1cccc(C(F)(F)F)c1)NC1CCCC1	-19%	-11%
CCOc1ccccc1NC(=S)Nc1ccc(S(N)(=O)=O)cc1	-14%	-21%
N#C/C(=C\c1ccc(-c2cccc([N+](=O)[O-])c2)o1)C(=O)N1CCOCC1	-13%	-18%
NCCOB(c1ccccc1)c1ccccc1	-6%	-10%&-9%
CCOC(=O)c1[nH]c(C)c(C(=O)OCc2ccc(C)cc2)c1C	-1%	2%
Nc1nnc(SCC(=O)Nc2nnc(-c3ccccc3)o2)s1	-12%	-3%
COc1ccc(N2C(=O)CC(c3ccccc3)CC2=O)cc1	-17%	-12%
CN(C)c1ccc(-c2ccnc3c2CC(C)(C(=O)Nc2ccccc2)O3)cc1 (stereo unspecified)	1%	-6%

# (listing goes on)
structure	Vaccinia mCherry	VACV Venus inh
CCOc1ccc(NC(=O)CSc2ncn[nH]2)cc1	6%	3%&1%
CCN1CCN(CCCNC(=O)c2cnn(-c3ccc(C)cc3C)c2C2CCN(C(=O)OC(C)(C)C)CC2)CC1	-2%	-6%
CCOC(=O)CC1C(=O)NCCN1C(=O)Nc1ccccc1 (stereo unspecified)	nt	1%
COC(=O)C1=C(c2ccccc2)C[C@@H]2CC[C@H]1N2C(=O)NC1CC1	i	-1%
COc1c(Cl)cc(-c2noc(C)c2C(=O)NC(C)C)cc1Cl	19%	0%
CCCCN(c1ccccc1)c1ncnc2c1cnn2-c1ccc(Cl)cc1	-12%	3%
CC1Sc2ccc(S(=O)(=O)N3CCC(C(=O)NCC(C)c4ccccc4)CC3)cc2NC1=O (stereo unspecified)	-10%	-11%
COc1ccc(N(CC(=O)Nc2cccc(N(C)S(C)(=O)=O)c2)S(=O)(=O)c2ccc(C)cc2)cc1	-16%	-28%
CCCCNC(=S)NCCN1CCCCC1	i	-3%
O=C1CCC2=C(CCCC2=O)N1	-11%	19%

# Remaining list, next part
structure	Vaccinia mCherry	VACV Venus inh
CC1Sc2ccc(C#N)cc2N(Cc2cccc(C(F)(F)F)c2)C1=O (stereo unspecified)	-13%	3%
COc1ccc(CN2CCN(C(C)C)C(CCO)C2)cc1Cn1cncn1 (stereo unspecified)	-15%	-2%
CON(C)c1nc(C2CCCCC2)c2cc(C)ccc2n1	-12%	-14%
O=C(CCCOc1ccc(Cl)cc1Cl)Nc1cc(S(=O)(=O)N2CCOCC2)ccc1N1CCOCC1	-21%	-21%
Cc1ccc2c(c1)C(c1ccccc1)N(C(=O)c1ccc(OC(C)C)cc1)CC(=O)N2 (stereo unspecified)	-5%	-12%
Oc1c(Br)cc(C=Nc2ccc3nc(-c4ccccc4)[nH]c3c2)c(O)c1Br	-9%	8%
Cc1ccc(NCc2cc3cc4c(cc3n(CC(=O)Nc3ccc(C)cc3)c2=O)OCCO4)cc1	-3%[7.34 µM]	2%[7.34 µM]
Cc1ccc2nc(-c3ccc(NC(=O)CN(c4ccccc4C)S(C)(=O)=O)cc3)sc2c1	nt	?
COc1ccc(OCCn2cncn2)cc1	-9%	-10%
COc1ccc(N(CC(=O)N2CCOCC2)S(C)(=O)=O)cc1OC	i	-4%
COc1ccc(NC(=O)C2Cc3ccccc3N2C(=O)c2ccccc2)cc1OC (stereo unspecified)	-4%	-12%
O=C(NCc1cnc2ccccn12)C1CCC(=O)N(Cc2ccccc2F)C1 (stereo unspecified)	i	-13%
O=C(NN=C1CCCC1)c1ccc(Br)cc1	i	-7%
